VLA-4 inh – inhibition in human VLA-4 binding assay, primary screen, VLA-4 allosteric modulator project, MLPCN library, flow cytometry, VLA-4 expressing cells. ligand binding flow cytometry. Integrin alpha-4 (Homo sapiens), P13612. actives 0.2% (n = 330,000). AID 2557, 2010. inhibition, % (about 7 µM as worked out from the volumes in the protocol); in the data active means inhibition above about 50%
MEX-5 binding – MEX-5 zinc finger RNA-binding disruptors – biochemical, C. elegans, fluorescence polarization, MLPCN library, primary screen; Zinc finger protein mex-5 (Caenorhabditis elegans), Q9XUB2; MEX-5/FITC-TCR2 RNA binding; active compounds read low; activity score (negative = inhibition of binding), % at 10 µM; actives 0.38% (n = 300,000);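 active means inhibition past about -25% in most replicates, and total fluorescence under double the plate's negative control median, limit read from the data; inconclusive means replicates evenly split on the limit, or fluorescence at least double controls; inactive means too little inhibition in most replicates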;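 further: 0% = DMSO and -100% = 5 µM competing unlabeled TCR2 RNA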
GLD-1 TGE inh – GLD-1/TGE RNA complex disruptors, primary screen, biochemical, fluorescence polarization; Female germline-specific tumor suppressor gld-1 (Caenorhabditis elegans), Q17339; actives 0.44% (n = 320,000); AID 2280, 2010; inhibition, % at 5.96 µM; purified GLD-1 + fluorescein TGE RNA;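 active means percent inhibition above a per-plate cutoff, the plate mean of test compounds plus 3 SD, cut at about 30% in these data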;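 further: 0% = DMSO wells with GLD-1 and probe and 100% = wells lacking GLD-1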
CIT2 TOR yeast – modulators of CIT2-GFP expression in yeast, primary screen, S. cerevisiae, GFP fusion, multiplex flow cytometry, MLPCN library; GFP response vs DMSO, % at 10 µM; S. cerevisiae CIT2-GFP strain, 3 h; 100 means same as DMSO wells; actives 0.065% (n = 320,000);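 active means GFP response relative to DMSO above a set limit, near the screen mean plus 3 SD, cut at about 150% in these data; inconclusive means Fewer than 70 cells measured for a yeast strain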;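 further: ratio of well median GFP fluorescence to mean of DMSO wells on the plate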
GRK2 aptamer HTS – compounds blocking aptamer binding on GRK2 – biochemical, human GRK2, bead flow cytometry, HTS, primary screen | actives 0.59% (n = 330,000) | Beta-adrenergic receptor kinase 1 (Homo sapiens), P25098 | inhibition of aptamer binding, % at 10 µM | FAM-aptamer displacement from GRK2;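 active means inhibition of aptamer binding above 40%, roughly 3 SD of noise, on plates passing a quality check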;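 further: median bead fluorescence of bound FAM aptamer so fluorescent compounds give negative values; no value below 0 was filed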
Target sequence (P25098 whole entry, looked up): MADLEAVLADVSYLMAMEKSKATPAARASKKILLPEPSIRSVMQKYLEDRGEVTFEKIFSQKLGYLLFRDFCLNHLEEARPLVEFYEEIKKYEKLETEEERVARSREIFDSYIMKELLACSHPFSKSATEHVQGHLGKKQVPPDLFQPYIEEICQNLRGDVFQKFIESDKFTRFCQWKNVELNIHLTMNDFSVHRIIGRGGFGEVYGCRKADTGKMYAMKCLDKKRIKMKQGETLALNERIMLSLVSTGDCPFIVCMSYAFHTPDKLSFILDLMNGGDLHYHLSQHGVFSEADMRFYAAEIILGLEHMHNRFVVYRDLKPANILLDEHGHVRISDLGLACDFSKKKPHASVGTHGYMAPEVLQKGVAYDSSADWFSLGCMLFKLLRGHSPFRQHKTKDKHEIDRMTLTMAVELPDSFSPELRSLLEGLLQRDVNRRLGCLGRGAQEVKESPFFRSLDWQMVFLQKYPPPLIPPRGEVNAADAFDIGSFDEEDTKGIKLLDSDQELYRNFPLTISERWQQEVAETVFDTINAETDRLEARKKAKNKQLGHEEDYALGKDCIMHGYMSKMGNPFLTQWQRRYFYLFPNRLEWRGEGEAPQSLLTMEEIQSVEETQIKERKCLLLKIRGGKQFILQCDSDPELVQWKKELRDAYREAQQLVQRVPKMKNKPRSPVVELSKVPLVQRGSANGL
AGP1 TOR yeast – modulators of AGP1-GFP expression in yeast TOR pathway, primary screen, cell-based, multiplex flow cytometry, S. cerevisiae, MLPCN library; GFP response vs DMSO, % at 10 µM; 3 h; GFP as percent of DMSO wells; actives 0.02% (n = 320,000); AID 2066, 2009;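 active means GFP response relative to DMSO above a set limit, near screen average plus 3 SD, cut at about 150% in these data; inconclusive means fewer than 70 cells counted for the yeast strain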;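 further: median GFP channel fluorescence of the gated AGP1 strain per well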
Yeast superoxide – reduction of superoxide in aged yeast, primary screen, HTS; S. cerevisiae aged cells, superoxide DHE fluorescence; active compounds read low; superoxide response (% of plate mean), % at 10 µM; actives 0.18% (n = 330,000); AID 2690, 2010;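 active means superoxide response under a set limit, about three screen SD below normal, cut at about 65% in these data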;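 further: yeast aged for seven days with compound at 30 °C before DHE staining; 100% = average MFI of all compound-treated wells on the plate with controls excluded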
Active calls of the source: *; i = inactive; u = inconclusive; x = not tested or not shown; & = joins results of further samples. Only part of the results is shown, so the mix of outcomes need not match the whole.

canonical_smiles	VLA-4 inh	MEX-5 binding	GLD-1 TGE inh	CIT2 TOR yeast	GRK2 aptamer HTS	AGP1 TOR yeast	Yeast superoxide
O=C(/C=C/c1ccccc1)Nc1nc(-c2ccncc2)cs1	-9.4	2.6	-4.1	112.3	0.0	107.4	99.6
CC(C(=O)O)c1ccc(C(=O)c2ccccc2)s1 (stereo not given)	3.7	x	-1.0	93.9	0.0	99.0	107.8
Cc1cccc(NC(=O)CCc2ccc(S(=O)(=O)NC3CCCCC3)cc2)c1	3.2	2.2	0.2	101.3	1.0	105.9	100.7
CN1CCN(C(=O)/C=C\c2ccc(Cl)cc2)CC1	1.9	-3.1	2.5	108.3	0.0	103.8	86.4
COc1ccc(NC(=O)CSc2nc3ccccc3c3nc4ccccc4n23)cc1	0.2	x	-1.4	u	0.0	u	114.0
O=C(Nc1ccccc1Cl)c1ccccc1S(=O)(=O)c1ccccc1[N+](=O)[O-]	15.5	0.8	-8.8	x	0.0	x	104.1
CN(C(=O)c1c[nH]c(=O)cc1C(F)(F)F)c1ccc(Cl)cc1	17.8	-2.0	5.2	101.5	6.0	93.8	93.5
CCc1nc(-c2cc3ccc(C)cc3[nH]c2=O)no1	6.7	-2.0	8.0	95.0	0.0	101.4	76.0
CCC(=O)N(CCC(c1ccccc1)c1ccco1)Cc1cccs1 (stereo not given)	-7.8	0.3	6.0	106.3	1.0	109.5	90.6
CCCCCn1c(=NC(C)=O)c(C#N)cc2c(=O)n3ccccc3nc21	3.6	-1.7	5.0	100.6	3.0	101.8	96.7
Cc1cccc(C)c1NC1=C(Cl)C(=O)OC1OC(C)C (stereo not given)	-5.6	2.4	-5.8	109.6	1.0	104.3	88.2
Cc1cccc(C)c1Nc1nnc(SCC(=O)NC(=O)c2cccn2C)s1	13.2	-0.5	-4.0	96.3	5.0	90.1	98.0
COc1ccc(OC)c2sc(NC(=O)c3ccc(S(=O)(=O)N(C)C)cc3)nc12	-4.9	-0.2	-6.2	92.0	0.0	93.2	133.9
O=C(c1ccco1)N(CCC(c1ccccc1)c1ccco1)Cc1ccccc1 (stereo not given)	4.6	3.8	-13.7	92.3	4.0	92.8	94.6
C[C@H]1O[C@@H](O[C@H]2[C@@H](O)C[C@H](O[C@H]3[C@@H](O)C[C@H](O[C@H]4CC[C@@]5(C)[C@H](CC[C@@H]6[C@@H]5C[C@@H](O)[C@]5(C)[C@@H](C7=CC(=O)OC7)CC[C@]65O)C4)O[C@@H]3C)O[C@@H]2C)C[C@H](O)[C@@H]1O	10.5&8.3	-0.6&0.0	-1.1&-1.1	87.8&91.7	0.0&0.0	87.7&91.8	95.2&97.0
Cc1cc(C(F)F)n2ncc(C(=O)NCCc3ccc(Cl)cc3)c2n1	1.9	1.8	-4.7	102.1	0.0	102.5	90.5
CC(C)=CCCC(C)CN1CCC(N2CCC(C(=O)N3CCCC3)CC2)CC1 (stereo not given)	3.8	2.9	-5.4	95.7	0.0	102.9	103.9
O=C(N/N=C/c1c[nH]c2c1ccc1ccccc12)c1ccc([N+](=O)[O-])cc1	6.5	-0.2	-9.8	98.9	0.0	94.5	97.5
CN(C)/C=N/c1nc(Sc2ccc(C(F)(F)F)cc2[N+](=O)[O-])n[nH]1	0.1	x	-6.9	89.0	0.0	92.7	129.1
Cc1cc(NS(=O)(=O)c2ccc(N)cc2)no1	13.5	-3.4	3.8	87.8	2.0	93.0	101.5
NC(=O)C1CCN(Cc2nc3cc(Cl)ccc3c(=O)[nH]2)CC1	0.2	4.7	-4.6	100.5	0.0	100.7	89.3
CCCCc1ccc(NC(=O)COCC)cc1	6.3	-0.2	1.5	102.2	0.0	97.5	77.6
CC(=O)Nc1sc2c(c1C(c1ccccn1)N1CCN(C)CC1)CCCC2 (stereo not given)	23.2	-1.4	3.1	93.7	0.0	94.1	108.8
Cc1ccc(C(=O)NC2CCCCCC2)cc1N1CCCC1=O	7.0	3.5	0.4	104.7	2.0	102.4	102.3
C#CCNC(=O)C1CCN(c2ccc(S(=O)(=O)N3CCOCC3)cc2Cl)CC1	-1.8	0.9	4.1	97.6	1.0	89.9	103.3
NC(=O)C(c1ccc(Cl)cc1)c1ccc(Sc2ccccc2)nn1 (stereo not given)	-15.6	2.8	0.7	98.3	0.0	101.2	90.5
Cn1c(NCc2ccco2)nc2c1c(=O)n(Cc1ccc(Br)cc1)c(=O)n2C	6.5	1.3	-2.6	101.8	2.0	110.0	92.7
CC1OC(OC2C(CO)OC(OC3C(CO)OC(O)C(O)C3O)C(O)C2O)C(O)C(O)C1N[C@@H]1C=C(CO)[C@@H](O)C(O)[C@H]1O (stereo not given in full)	-5.4	-2.5	3.4	107.1	1.0	95.6	91.5
Cc1nc(N)nc(-c2ccccc2O)n1	4.3	-0.3	0.3	109.2	32.0	97.1	93.9
C=CCNC(=O)NC(=O)CSc1nnc(C(F)(F)F)n1C	20.1	1.2	0.3	90.2	0.0	100.0	90.9
C=CCn1c(CCNC(=O)c2cccs2)nnc1SCC(=O)Nc1cccc(Cl)c1C	3.2	1.4	1.3	99.9	0.0	102.2	95.1
NS(=O)(=O)c1cccnc1Nc1cccc(Cl)c1Cl	6.9	-3.3	4.7	93.3	1.0	97.0	94.1
CC(C)=CCCC(C)CN1CCC(O)CC1 (stereo not given)	26.5	-1.1	3.3	112.0	1.0	x	85.8
COC(=O)COc1cccc(NC(=O)c2cc(OC)cc(OC)c2)c1	24.3	-1.4	2.9	95.2	0.0	94.7	95.0
COc1ccc2cc3cc(C(=O)NCCN4CCc5ccccc5C4)sc3nc2c1	10.5	0.8	5.4	106.3	0.0	104.0	97.2
Cc1sc2nc(CSc3ccccc3)nc(N3CCOCC3)c2c1C	-10.6	1.2	-0.4	95.9	0.0	103.1	109.0
Cc1cc2c(cc1S(=O)(=O)N(C)c1ccccc1)NC(=O)CO2	-3.4	0.0	-7.8	106.9	1.0	100.2	103.0
COC(=O)c1cc2ccsc2n1CC(=O)N(C)c1ccccc1	9.3	1.3	-4.0	98.5	2.0	100.9	104.8
COc1ccccc1OCc1nnc(SCC(=O)Nc2ccc(C)cc2)n1C	-4.2	0.9	-4.1	97.4	3.0	92.3	95.5
CCOC(=O)CSC1=NC(=O)/C(=C/c2ccc(OC)cc2)S1	35.9	1.7	-4.4	75.4	5.0	92.6	92.7
Cc1sc2nc(CN3CCCC3)nc(N3CCC(C(N)=O)CC3)c2c1C	12.0	-0.1	-7.0	98.8	0.0	101.9	113.4
O=C(Oc1oc(-c2ccco2)nc1C=Nc1ccccc1)c1ccoc1	23.4	2.2	-1.2	86.6	0.0	72.5	101.8
COc1cc2c(c(OC)c1OC)-c1ccc(OC)c(=O)cc1C(NC(C)=O)CC2 (stereo not given)	-9.6	-1.5	4.1	99.4	3.0	88.0	95.9
Cc1cccc(Nc2nc(N)nc(CSc3nccc(C)n3)n2)c1	3.8	0.1	5.0	97.0	0.0	103.6	84.7
COc1ccc(OC)c2sc(NC(=O)c3ccc(Br)s3)nc12	-6.5	0.7	-8.9	109.4	0.0	108.7	108.2
COC(=O)c1ccc2c(=O)[nH]c(CSc3nc(C)cs3)nc2c1	20.3	-1.7	-0.2	102.3	0.0	98.6	115.5
COc1ccccc1-n1c(-c2cc(-c3ccc(F)cc3)n[nH]2)n[nH]c1=S	-10.6	3.8	2.2	91.9	2.0	99.5	91.9
O=C(NCCN1CCCCC1)c1ccco1	13.7	-0.2	2.4	100.2	0.0	101.6	89.2
CCCS(=O)(=O)N1CCn2c(nc3ccccc32)C1	-3.6	-1.3	1.1	104.8	2.0	90.5	109.8
COc1ccc2cc(C#N)c(N3CCN(Cc4nnnn4CCC(C)C)CC3)nc2c1	-12.0	-2.0	-9.3	89.2	3.0	92.5	111.3
COc1ccc(CN(CCC(c2ccco2)C(C)C)C(C)=O)cc1OC (stereo not given)	7.5	x	3.0	91.3	0.0	96.7	105.9
CCOC(=O)c1cc(Br)c(=O)n2ccccc12	-0.6	-0.5	1.2	95.6	7.0	86.0	90.3
CN(C)c1oc(-c2ccccc2[N+](=O)[O-])nc1C#N	0.3	-8.5	-2.1	92.9	4.0	98.5	89.3
CC(C)CCNC(=O)NC(=O)COC(=O)/C=C/c1cccc([N+](=O)[O-])c1	-15.4	0.3	-2.0	103.7	0.0	106.5	92.3
COc1cc(NC(=O)c2cnc(N)s2)cc(C(=O)Nc2cccc(C(F)(F)F)c2)c1	7.1	1.4	-0.9	117.6	0.0	90.7	139.4
CCOC(=O)N1CCC(N(C(=O)Nc2ccc(CC)cc2)C(C)CC)CC1 (stereo not given)	-3.8	1.1	-0.3	99.1	0.0	98.5	i
N#Cc1cnc(SCC(=O)NNC(=O)COc2cccc3ccccc23)nc1N	0.9	-5.9	-9.6	106.8	1.0	108.3	101.7
CSc1nnc2c(n1)[nH]c1c(C)cccc12	-2.8	-0.5	6.8	89.6	1.0	88.9	89.8
Cc1ccc(Nc2nc(N)nc(CSc3nnc(C)s3)n2)cc1	14.3	0.8	2.0	99.5	0.0	98.7	92.3
Nc1ccc(S(=O)(=O)Nc2ccc(Cl)nn2)cc1	6.1	x	1.7	91.8	0.0	99.6	97.3
CCCCC(=O)Nc1nc2c(OC)ccc(OC)c2s1	-5.6	-2.7	-1.3	105.3	5.0	108.5	99.5
O=[N+]([O-])c1ccc2c(c1)/C(=N\O)c1ccccc1-2	-9.9	-1.8	5.0	x	0.0	x	79.3
COc1cccc(OCCNC(=O)CSc2ccc(C(F)(F)F)cc2[N+](=O)[O-])c1	-2.0	-1.5	6.7	89.9	0.0	96.8	114.9
